YB-1 expr inh: inhibitors of YB-1 gene expression, primary screen, cell-based, fluorescence | U2OS, qRT-PCR YB-1 vs CDIP delta delta Cp, 16 h; stronger effect = higher value; zero = DMSO, each unit about twofold | delta delta Cp (YB-1 minus CDIP) (no concentration beside the values) | 0.37% of 30,000 active | AID 434959, 2010;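 active = delta delta Cp rounded down to an integer at or above 3, about 3 SD of DMSO wells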;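 note: higher means less YB-1 transcript or more CDIP transcript relative to DMSO; stock transfer was 100 nL into about 100 µL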
* hit, by the source's call.

SMILES	YB-1 expr inh
CO[C@H]1O[C@H](CO)[C@@H](OC(=O)Nc2ccccc2)[C@H](OC(=O)Nc2ccccc2)[C@H]1OC(=O)Nc1ccccc1	0.056
C[C@@H]1CN([C@@H](C)CO)C(=O)CCCn2cc(nn2)CO[C@H]1CN(C)C(=O)Nc1ccc2c(c1)OCCO2	0.14
C=CCOC(=O)[C@@H]1[C@H]2C(=O)O[C@H](c3ccccc3)[C@H](c3ccccc3)N2[C@H](c2ccc(OCCOC(=O)[C@@H]3C[C@@H]4C(=O)N5CCC[C@H]5C(=O)N4[C@@H]3c3ccc(O)cc3)cc2)[C@@]12C(=O)Nc1ccc(I)cc12	0.45
O=C1O[C@H](c2ccccc2)[C@H](c2ccccc2)N2[C@H]1[C@@H](C(=O)N1CCCCCCC1)[C@]1(C(=O)Nc3ccccc31)[C@H]2c1ccc(O)cc1	-0.15
O=C(N1CCCCC1)[C@@]1(Cc2ccccc2)N=C(c2ccc(OCCCO)cc2)O[C@H]1c1ccccc1	-0.34
C=CCNC(=O)[C@H]1[C@@H]2C(=O)O[C@@H](c3ccccc3)[C@@H](c3ccccc3)N2[C@@H](c2ccc(O)cc2)[C@]12C(=O)Nc1ccccc12	0.14
COc1cc(/C=C/C=N/NC(=O)c2ccc(C(=O)NO)cc2)ccc1O	0.21
O=C(NO)c1cccc(C(=O)N/N=C/c2ccc(O)cc2Br)c1	-0.79
COc1ccc(-c2cnc3c(c2)C(=O)N([C@H](C)CO)C[C@H](C)[C@H](CN(C)Cc2ccc(F)cc2)O3)cc1	0.23
C[C@@H]1CN([C@@H](C)CO)C(=O)CCCn2nncc2CO[C@@H]1CN(C)C(=O)Nc1ccc(C(F)(F)F)cc1	-0.034
[N-]=[N+]=NCc1ccccc1C[C@@]1(C(=O)NCCN2CCOCC2)N=C(c2ccc(OCCCO)cc2)O[C@@H]1c1ccccc1	-0.27
COc1cc2c(cc1O)C(C1CC1)N(C)CC2 (stereo not given)	0.35
C[C@@H]1CN([C@H](C)CO)C(=O)CCCn2cc(nn2)CO[C@@H]1CN(C)Cc1ccc2c(c1)OCCO2	-0.41
COc1ccc(NC(=O)N(C)C[C@H]2OCc3cnnn3CCCC(=O)N([C@H](C)CO)C[C@@H]2C)cc1	0.29
O=C(NO)c1cccc(C(=O)N/N=C/c2ccc(Br)cc2)c1	-0.058
C[C@H]1CN([C@@H](C)CO)C(=O)CCCn2nncc2CO[C@H]1CN(C)S(C)(=O)=O	-0.016
COc1ccccc1CN(C)C[C@H]1OCc2cn(nn2)CCCC(=O)N([C@H](C)CO)C[C@H]1C	0.19
Cc1ccc(S(=O)(=O)NC2CCN(Cc3ccc(OCCO)cc3)CC2)cc1	0.2
Cc1ccccc1S(=O)(=O)N(C)C[C@H]1OCc2cn(nn2)CCCC(=O)N([C@H](C)CO)C[C@@H]1C	-0.33
O=C(NO)c1ccc(C(=O)N/N=C/c2ccc3ccccc3c2O)cc1	0.12
C[C@H](CO)N1C[C@H](C)[C@H](CN(C)S(C)(=O)=O)Oc2ncc(C#Cc3ccccc3)cc2C1=O	-0.4
C[C@@H]1CN([C@H](C)CO)C(=O)CCCn2nncc2CO[C@H]1CN(C)S(=O)(=O)c1ccccc1	0.24
Cc1noc(C)c1NC(=O)N(C)C[C@@H]1OCc2cnnn2CCCC(=O)N([C@H](C)CO)C[C@@H]1C	-0.36
C[C@H](CO)N1C[C@H](C)[C@H](CN(C)C(=O)NC2CCCCC2)OCc2cnnn2CCCC1=O	-0.18
C[C@@H]1CN([C@H](C)CO)C(=O)CCCn2nncc2CO[C@H]1CN(C)C(=O)Nc1ccc(C(F)(F)F)cc1	-0.053
(listing goes on)
SMILES	YB-1 expr inh
C[C@H](CO)N1C[C@H](C)[C@H](CN(C)S(=O)(=O)c2ccc(F)cc2)Oc2ncc(-c3ccccc3)cc2C1=O	-0.56
C[C@@H]1CN([C@@H](C)CO)C(=O)CCCn2cc(nn2)CO[C@H]1CN(C)S(=O)(=O)c1ccc(Cl)cc1	0.24
COCCOC(=O)N1C(=O)[C@@]2(c3cc(C#CCC(C(=O)OC)C(=O)OC)ccc31)[C@H](c1ccc(OCCO)cc1)N1[C@H](c3ccccc3)[C@H](c3ccccc3)OC(=O)[C@H]1[C@@H]2C(=O)N1CCN(c2ncccn2)CC1	0.11
C[C@H]1CN([C@@H](C)CO)C(=O)CCCn2nncc2CO[C@@H]1CN(C)C(=O)c1ccccc1	-0.81
C[C@@H]1CN([C@@H](C)CO)C(=O)CCCn2nncc2CO[C@H]1CN(C)S(=O)(=O)c1ccccc1F	-0.036
CCOC(=O)N(C)C[C@@H]1OCc2cn(nn2)CCCC(=O)N([C@@H](C)CO)C[C@H]1C	0.15
C=CCNC(=O)[C@@H]1[C@H]2C(=O)O[C@H](c3ccccc3)[C@H](c3ccccc3)N2[C@H](c2ccc(OCCO)cc2)[C@@]12C(=O)N(C(=O)OCCOC)c1ccc(C#CCC(C(=O)OC)C(=O)OC)cc12	0.032
C[C@H](CO)N1C[C@H](C)[C@H](CN(C)S(C)(=O)=O)Oc2ncc(Br)cc2C1=O	-0.25
COc1ccc([C@@H]2C=C(C(=O)NCc3ccccc3)O[C@H](OCc3ccc(CO)cc3)C2)cc1	-0.11
Cn1cc(/C=N/NC(=O)CCCCCCC(=O)Nc2ccccc2O)c2ccccc21	-0.69
COc1ccc([Si](C)(C)[C@H]2[C@H](CCn3cc([C@H](O)c4ccccc4)nn3)O[C@@]3(C(=O)N(C)c4c(Br)cc(C)cc43)[C@@H]2C)cc1	-0.47
COc1ccc(Br)cc1/C=N/NC(=O)CCCCCC(=O)Nc1ccccc1O	0.26
C[C@H]1CN([C@@H](C)CO)C(=O)CCCn2cc(nn2)CO[C@@H]1CN(C)C(=O)Nc1cccc(Oc2ccccn2)c1	-0.15
Cc1ccc(CN(C)C[C@@H]2OCc3cnnn3CCCC(=O)N([C@@H](C)CO)C[C@H]2C)cc1	-0.029
CC(C)C[C@@H]1NC(=O)[C@H]2C[C@@H](C(=O)NCCCCCNC(=O)CS)[C@@H](c3cccc(OCCO)c3)N2C1=O	-0.14
Cc1ccccc1/C=N/NC(=O)CCCCC(=O)NO	0.21
CC(C)(C)OC(=O)N1CCC[C@H]1/C=N/NC(=O)CCCCCC(=O)Nc1ccccc1O	-0.97
COc1ccc(NC(=O)N(C)C[C@H]2OCc3cnnn3CCCC(=O)N([C@@H](C)CO)C[C@H]2C)cc1	-0.0032
C[C@@H]1CN([C@H](C)CO)C(=O)CCCn2nncc2CO[C@@H]1CN(C)C(=O)OCc1ccccc1	0.059
O=C1O[C@@H](c2ccccc2)[C@@H](c2ccccc2)N2[C@@H](c3ccc(OCCO)cc3)[C@]3(C(=O)Nc4ccc(C#CC5=CCCCC5)cc43)[C@@H](C(=O)N3CCN(c4ncccn4)CC3)[C@H]12	-0.089
C[C@H](CO)N1C[C@H](C)[C@H](CN(C)Cc2ccc3c(c2)OCCO3)OCc2cnnn2CCCC1=O	-0.13
CNC[C@@H]1Oc2ncc(-c3ccc(OC)cc3)cc2C(=O)N([C@H](C)CO)C[C@@H]1C	0.2
COC(=O)C(CC#Cc1ccc2c(c1)[C@]1(C(=O)N2)[C@H](c2ccccc2OCCO)N2[C@H](c3ccccc3)[C@H](c3ccccc3)OC(=O)[C@H]2[C@@H]1C(=O)N1CCCCCCC1)C(=O)OC	0.15
O=C(CCCCCC(=O)N/N=C/c1c[nH]c2ccccc12)NO	-0.75
Cc1ncc(CO)c(/C=N/NC(=O)CCCCCC(=O)O)c1O	-0.13
The list goes on.
SMILES	YB-1 expr inh
Cc1ccc(/C=N/NC(=O)c2cccc(C(=O)NO)c2)o1	-0.48
COc1ccc(C#Cc2ccc3c(c2)[C@]2(C(=O)N3)[C@H](c3ccccc3OCCO)N3[C@H](c4ccccc4)[C@H](c4ccccc4)OC(=O)[C@H]3[C@@H]2C(N)=O)cc1	-0.34
Cc1noc(C)c1NC(=O)Nc1ccc2c(c1)C(=O)N([C@H](C)CO)C[C@@H](C)[C@@H](CN(C)S(=O)(=O)c1c(C)noc1C)O2	0.2
C[C@@H]1CN([C@H](C)CO)C(=O)CCCn2nncc2CO[C@H]1CN(C)Cc1ccc(Oc2ccccc2)cc1	-0.17
C[C@H](CO)N1C[C@H](C)[C@H](CN(C)S(C)(=O)=O)Oc2ncc(C#Cc3cccc(F)c3)cc2C1=O	-0.33
O=C(N/N=C/C1=CCCCC1)c1ccccc1O	0.11
C=CCNC(=O)[C@H]1[C@@H]2C(=O)O[C@@H](c3ccccc3)[C@@H](c3ccccc3)N2[C@@H](c2ccc(O)cc2)[C@]12C(=O)Nc1ccc(C#CC3=CCCCC3)cc12	0.079
Cc1ccc(/C=N/NC(=O)c2ccc(C(=O)NO)cc2)o1	-0.33
C[C@@H]1CN([C@@H](C)CO)C(=O)CCCn2cc(nn2)CO[C@H]1CN(C)C(=O)CCC(F)(F)F	-0.043
C=CCN1C(=O)[C@@]2(O[C@@H](CCO)[C@H]([Si](C)(C)c3ccc(OC)cc3)[C@H]2C)c2cc(I)ccc21	0.2
C[C@H](CO)N1C[C@H](C)[C@H](CN(C)S(=O)(=O)c2ccc(Cl)cc2)OCc2cnnn2CCCC1=O	0.3
C=CCNC(=O)[C@H]1[C@@H]2C(=O)O[C@@H](c3ccccc3)[C@@H](c3ccccc3)N2[C@@H](c2ccc(OCCO)cc2)[C@]12C(=O)Nc1ccc(C#CCNC(N)=O)cc12	-0.48
C[C@@H]1CN([C@H](C)CO)C(=O)CCCn2cc(nn2)CO[C@H]1CN(C)C(=O)c1ccc(N2CCN(C)CC2)cc1	0.34
COCCOC(=O)N1C(=O)[C@@]2(c3cc(C#CCC(C(=O)OC)C(=O)OC)ccc31)[C@H](c1ccc(O)cc1)N1[C@H](c3ccccc3)[C@H](c3ccccc3)OC(=O)[C@H]1[C@@H]2C(=O)N1CCc2cc(OC)c(OC)cc2C1	-0.11
O=C(CCCCC(=O)N/N=C/c1cc(Br)cc(Br)c1O)NO	-0.31
CC(C)OC(=O)N(C)C[C@H]1OCc2cn(nn2)CCCC(=O)N([C@H](C)CO)C[C@H]1C	0.3
O=C(N/N=C/c1ccc([N+](=O)[O-])c(O)c1)c1ccccc1O	0.2
O=C(NO)c1cccc(C(=O)N/N=C/c2cccc(O)c2)c1	-0.46
Cc1cccc(CN(C)C[C@H]2OCc3cnnn3CCCC(=O)N([C@H](C)CO)C[C@H]2C)c1	0.17
COc1ccc(/C=N/NC(=O)c2ccccn2)cc1	-0.36
C[C@@H]1CN([C@H](C)CO)C(=O)CCCn2nncc2CO[C@@H]1CN(C)C(=O)Nc1ccc(C(C)(C)C)cc1	0.11
C[C@@H]1CN([C@H](C)CO)C(=O)CCCn2nncc2CO[C@@H]1CN(C)Cc1ccccc1C(F)(F)F	0.36
C[C@@H]1CN([C@@H](C)CO)C(=O)CCCn2nncc2CO[C@@H]1CN(C)CC1CCCCC1	0.04
COc1ccc(NC(=O)N(C)C[C@H]2OCc3cnnn3CCCC(=O)N([C@H](C)CO)C[C@H]2C)cc1	0.13
C[C@H](CO)N1C[C@H](C)[C@@H](CN(C)S(=O)(=O)c2ccc(Oc3ccccc3)cc2)OCc2cn(nn2)CCCC1=O	0.33

Eleven entries already listed, ordered by heavy-atom count, highest first.
SMILES	YB-1 expr inh
C=CCNC(=O)[C@@H]1[C@H]2C(=O)O[C@H](c3ccccc3)[C@H](c3ccccc3)N2[C@H](c2ccc(OCCO)cc2)[C@@]12C(=O)N(C(=O)OCCOC)c1ccc(C#CCC(C(=O)OC)C(=O)OC)cc12	0.032
C=CCNC(=O)[C@H]1[C@@H]2C(=O)O[C@@H](c3ccccc3)[C@@H](c3ccccc3)N2[C@@H](c2ccc(O)cc2)[C@]12C(=O)Nc1ccc(C#CC3=CCCCC3)cc12	0.079
Cc1noc(C)c1NC(=O)Nc1ccc2c(c1)C(=O)N([C@H](C)CO)C[C@@H](C)[C@@H](CN(C)S(=O)(=O)c1c(C)noc1C)O2	0.2
C[C@H](CO)N1C[C@H](C)[C@@H](CN(C)S(=O)(=O)c2ccc(Oc3ccccc3)cc2)OCc2cn(nn2)CCCC1=O	0.33
C[C@H](CO)N1C[C@H](C)[C@H](CN(C)S(=O)(=O)c2ccc(F)cc2)Oc2ncc(-c3ccccc3)cc2C1=O	-0.56
C[C@@H]1CN([C@@H](C)CO)C(=O)CCCn2cc(nn2)CO[C@H]1CN(C)S(=O)(=O)c1ccc(Cl)cc1	0.24
CC(C)(C)OC(=O)N1CCC[C@H]1/C=N/NC(=O)CCCCCC(=O)Nc1ccccc1O	-0.97
Cn1cc(/C=N/NC(=O)CCCCCCC(=O)Nc2ccccc2O)c2ccccc21	-0.69
O=C(NO)c1cccc(C(=O)N/N=C/c2cccc(O)c2)c1	-0.46
Cc1ccc(/C=N/NC(=O)c2cccc(C(=O)NO)c2)o1	-0.48
COc1cc2c(cc1O)C(C1CC1)N(C)CC2 (stereo not given)	0.35

The list continues:
SMILES	YB-1 expr inh
COc1ccc(NC(=O)N(C)C[C@H]2OCc3cnnn3CCCC(=O)N([C@H](C)CO)C[C@@H]2C)c(OC)c1	0.1
O=C(NO)c1ccc(C(=O)N/N=C/c2ccc(I)cc2)cc1	-0.059
O=C(O)CCCCCC(=O)N/N=C/c1nccs1	0.43
CCCC(O)C#Cc1cnc2c(c1)C(=O)N([C@H](C)CO)C[C@H](C)[C@H](CN(C)C(=O)Nc1cccc3ccccc13)O2 (stereo not given in full)	-0.21
Cc1ccc(CN(C)C[C@@H]2OCc3cnnn3CCCC(=O)N([C@@H](C)CO)C[C@@H]2C)cc1	0.44
C[C@@H]1CN([C@@H](C)CO)C(=O)CCCn2cc(nn2)CO[C@@H]1CN(C)Cc1cccnc1	-0.24
Cc1ccc(S(=O)(=O)N(C)C[C@@H]2Oc3ncc(-c4cc5ccccc5o4)cc3C(=O)N([C@H](C)CO)C[C@@H]2C)cc1	-0.32
C[C@H](CO)N1C[C@H](C)[C@@H](CN(C)C(=O)C2CCCCC2)OCc2cnnn2CCCC1=O	0.1
C[C@H](CO)N1C[C@H](C)[C@H](CN(C)C(=O)Nc2ccc3c(c2)OCO3)OCc2cn(nn2)CCCC1=O	-0.017
O=C(N/N=C/c1nccs1)c1ccccn1	-0.15
COCCCNC(=O)[C@@]1(Cc2ccccc2CN=[N+]=[N-])N=C(c2ccc(OCCCO)cc2)O[C@H]1c1ccccc1	0.58

Assay outcomes from PubChem.

An excerpt (hit frequency here may not be typical).
